High-throughput results as filed in PubChem BioAssay.
Vaccinia inh = blocks a specific stage of Vaccinia orthopoxvirus infection | Vaccinia-infected cells, mCherry/Venus stage reporter fluorescence; active compounds read low; some inactives read as strong as hits | activity change (mCherry), % (test concentration not listed) | hit rate 0.01% among 89,000;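 active means mCherry past -33% and 40 or more points under the early reporter, replicates agreeing; inconclusive means past -33% without that gap or agreement; tested in A549 cells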;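 further: scaled between vehicle wells and reference inhibitor wells; 23 nL library stock went into each well; one replicate is shown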
Vaccinia inh Venus = second read-out of Vaccinia inh, no call of its own (marks repeat the call); activity change (Venus), %; measured here: Venus reporter, other viral stage;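 negative = less Venus signal; first of two replicates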
Starred values were filed as active, the others as inactive; ? = inconclusive; · = no result given.

Preview, 6 compounds:
SMILES	Vaccinia inh	Vaccinia inh Venus
C[C@@H]1CN([C@H](C)CO)C(=O)c2cccc(NS(C)(=O)=O)c2O[C@H]1CN(C)C(=O)Nc1ccc(C(F)(F)F)cc1	8	3
COc1cccc(S(=O)(=O)N2C[C@H](O)COC[C@@H]3O[C@H](CC(=O)N4CCCCC4)CC[C@H]32)c1	9	0
CC(C)NC(=O)N(C)C[C@H]1Oc2cc(C#Cc3cccc(F)c3)ccc2S(=O)(=O)N([C@@H](C)CO)C[C@H]1C	?	·
C[C@@H]1CN([C@H](C)CO)C(=O)c2cc(NS(=O)(=O)c3ccc(Cl)cc3)ccc2O[C@H]1CN(C)Cc1ccc(Cl)c(Cl)c1	1	-1
COc1ccc(S(=O)(=O)N(C)C[C@@H]2OCCCC[C@@H](C)Oc3ccc(NC(=O)Cc4ccccc4)cc3C(=O)N([C@@H](C)CO)C[C@@H]2C)cc1	8	6
C[C@H]1CN([C@@H](C)CO)C(=O)c2cccc(NC(=O)c3nc4ccccc4s3)c2O[C@H]1CN(C)C(=O)Nc1ccc(C(F)(F)F)cc1	?	·

The list itself, from the first entry:
SMILES	Vaccinia inh	Vaccinia inh Venus
C[C@@H]1CN([C@H](C)CO)C(=O)c2cccc(NS(C)(=O)=O)c2O[C@H]1CN(C)C(=O)Nc1ccc(C(F)(F)F)cc1	8	3
COc1cccc(S(=O)(=O)N2C[C@H](O)COC[C@@H]3O[C@H](CC(=O)N4CCCCC4)CC[C@H]32)c1	9	0
CC(C)NC(=O)N(C)C[C@H]1Oc2cc(C#Cc3cccc(F)c3)ccc2S(=O)(=O)N([C@@H](C)CO)C[C@H]1C	?	·
C[C@@H]1CN([C@H](C)CO)C(=O)c2cc(NS(=O)(=O)c3ccc(Cl)cc3)ccc2O[C@H]1CN(C)Cc1ccc(Cl)c(Cl)c1	1	-1
COc1ccc(S(=O)(=O)N(C)C[C@@H]2OCCCC[C@@H](C)Oc3ccc(NC(=O)Cc4ccccc4)cc3C(=O)N([C@@H](C)CO)C[C@@H]2C)cc1	8	6
C[C@H]1CN([C@@H](C)CO)C(=O)c2cccc(NC(=O)c3nc4ccccc4s3)c2O[C@H]1CN(C)C(=O)Nc1ccc(C(F)(F)F)cc1	?	·
CC(C)(C)[C@@H]1C=C(C(=O)O)O[C@H](OCc2ccc(CO)cc2)C1	15	4
COc1ccc2c3c(n(C)c2c1)[C@H](CO)N(C(C)=O)CC31CN(C(=O)c2cnccn2)C1	9	3
CCNC(=O)C[C@@H]1CC[C@@H]2[C@@H](COc3ccc(NC(=O)Nc4c(C)noc4C)cc3C(=O)N2C)O1	15	5
C[C@H](CO)N1C[C@H](C)[C@@H](CN(C)S(C)(=O)=O)Oc2c(NC(=O)Nc3ccccc3)cccc2C1=O	4	1
O=C(c1ccccc1)N1CC[C@H]2[C@H](CO)Nc3ccc(C#Cc4ccccc4F)cc3[C@H]21	?	·
C[C@@H]1CN([C@@H](C)CO)C(=O)c2cc(-c3cccc(F)c3)cnc2O[C@H]1CN(C)C(=O)c1ccccn1	-1	-7
C[C@H](CO)N1C[C@H](C)[C@H](CN(C)S(=O)(=O)c2ccc(C#N)cc2)Oc2ncc(-c3ccccc3)cc2C1=O	-12	4
O=C(C[C@@H]1CC[C@@H](NC(=O)Nc2cccc(F)c2)[C@@H](CO)O1)NCC1CC1	-5	-12
C/C=C/c1cnc2c(c1)C(=O)N([C@H](C)CO)C[C@@H](C)[C@H](CN(C)CC1CCOCC1)O2	0	2
CN1[C@@H]2c3ccc(-c4cccc(F)c4)c(=O)n3C[C@H]1[C@H](CO)[C@H]2C(=O)N1CCCCC1	-4	-1
CCCC#Cc1cnc2c(c1)C(=O)N([C@@H](C)CO)C[C@@H](C)[C@H](CN(C)C(=O)Nc1cccc(F)c1)O2	-15	-5
C[C@H](O)C#Cc1cnc2c(c1)C(=O)N([C@@H](C)CO)C[C@H](C)[C@H](CN(C)C(=O)Cc1ccccn1)O2	11	12
CCC(=O)Nc1ccc2c(c1)C(=O)N(C)C[C@@H](OC)[C@@H](C)CN(C(=O)c1ccccc1F)[C@@H](C)CO2	24	11
O=C(c1ccccc1)N1C[C@H]2[C@@H](c3ccccc31)[C@H](CO)N2Cc1cc(F)ccc1F	4	-2
C[C@H](CO)N1C[C@H](C)[C@@H](CN(C)S(=O)(=O)c2cccs2)Oc2ccc(NS(=O)(=O)c3cn(C)cn3)cc2CC1=O	14	14
Cc1ccc(S(=O)(=O)N(C)C[C@H]2OCCCC[C@H](C)Oc3ccc(NC(=O)c4ccncc4)cc3C(=O)N([C@@H](C)CO)C[C@H]2C)cc1	6	2
CO[C@@H]1CN(C)C(=O)c2cc(NS(=O)(=O)c3ccccc3C)ccc2OC[C@@H](C)N(C)C[C@H]1C	5	4
N#C[C@@H]1[C@@H](c2ccc(C#Cc3ccccc3F)cc2)[C@@H](CO)N1C(=O)C1CC1	-7	-8
C[C@@H]1CN([C@@H](C)CO)C(=O)Cc2cc(NC(=O)Nc3ccccc3)ccc2O[C@@H]1CN(C)Cc1ccc(Cl)c(Cl)c1	?	·

Remaining list, next part.
SMILES	Vaccinia inh	Vaccinia inh Venus
Cc1ccc(S(=O)(=O)N(C)C[C@@H]2OCCCC[C@@H](C)Oc3ccc(NC(=O)CCCN(C)C)cc3C(=O)N([C@@H](C)CO)C[C@@H]2C)cc1	25	3
C[C@@H]1CCCCO[C@H](CN(C)Cc2ccc3c(c2)OCO3)[C@H](C)CN([C@H](C)CO)C(=O)c2cc(NC(=O)C3CCCCC3)ccc2O1	?	·
C[C@@H]1CN([C@@H](C)CO)C(=O)c2cccc(NC(=O)C3CCCCC3)c2O[C@@H]1CN(C)Cc1ccc(C(F)(F)F)cc1	?	·
C[C@@H]1CN([C@@H](C)CO)C(=O)Cc2cc(N(C)C)ccc2O[C@H]1CN(C)S(=O)(=O)c1ccc(Cl)cc1	-15	-9
COc1ccc(CN(C)C[C@@H]2OCCCC[C@@H](C)Oc3ccc(NC(=O)Nc4ccc5c(c4)OCO5)cc3C(=O)N([C@H](C)CO)C[C@@H]2C)cc1	6	-9
C[C@H]1CN([C@@H](C)CO)C(=O)c2cc(C3=CCCC3)cnc2O[C@H]1CN(C)C(=O)c1ccccn1	9	6
C[C@@H]1CCCCO[C@@H](CN(C)Cc2ccc3c(c2)OCO3)[C@@H](C)CN([C@H](C)CO)C(=O)c2cc(NC(=O)Nc3ccc(C(F)(F)F)cc3)ccc2O1	-4	-2
O=C(C[C@@H]1CC[C@H](NC(=O)NC2CCCC2)[C@@H](CO)O1)NCc1ccc(F)cc1	9	12
CCC(=O)Nc1ccc2c(c1)OC[C@@H](C)N(Cc1cccc(F)c1)C[C@@H](C)[C@H](OC)CN(C)C2=O	-7	-3
CN(C)C(=O)c1ccc(-c2ccc3c(c2)[C@@H]2[C@@H](CCN2C(=O)C2CCC2)[C@H](CO)N3C)cc1	-34	-25
N#C[C@H]1[C@H](c2ccc(-c3cccc(F)c3)cc2)[C@@H](CO)N1C(=O)NC1CCCC1	?	·
C[C@@H]1CN([C@H](C)CO)C(=O)c2cc(Br)cnc2O[C@H]1CN(C)S(=O)(=O)c1ccc(F)cc1	-1	0
O=C(C1CCCC1)N1CCCCN2[C@H](CO)[C@@H](c3ccc(C#CC4(O)CCCC4)cc3)[C@@H]2C1	-5	-14
COc1ccccc1NC(=O)N1CCCCN2[C@H](CO)[C@@H](c3ccc(C#Cc4ccccc4)cc3)[C@H]2C1	?	·
COC(=O)C[C@@H]1CC[C@H]2[C@H](COc3ccc(NC(=O)c4cccc(OC)c4)cc3C(=O)N2C)O1	12	12
Cc1ccc(S(=O)(=O)N[C@H]2CC[C@@H](CC(=O)N3CCC(Cc4ccccc4)CC3)O[C@H]2CO)cc1	-32	-26
COCC(=O)N1CC[C@H]2[C@H](CO)Nc3ccc(C#Cc4ccc(OC)cc4)cc3[C@H]21	-30	-29
COCC(=O)N1CC2(C1)CN(Cc1ccc3c(c1)OCO3)[C@@H](CO)c1c2c2ccc(OC)cc2n1C	15	-2
O=C(C[C@@H]1C=C[C@H](NC(=O)Cc2cccnc2)[C@@H](CO)O1)Nc1ccc(-c2ccccc2)cc1	12	8
CC(C)NC(=O)N(C)C[C@H]1OCCCC[C@H](C)Oc2ccc(NC(=O)Cc3ccccc3)cc2C(=O)N([C@H](C)CO)C[C@@H]1C	12	5
COc1ccc2c3c([nH]c2c1)[C@@H](CO)N(C(=O)Nc1ccc(F)cc1)CC31CCN(Cc2cc(-c3ccccc3)on2)CC1	-20	-15
CC(C)NC(=O)Nc1ccc2c(c1)CC(=O)N([C@@H](C)CO)C[C@H](C)[C@H](CN(C)Cc1ccc3c(c1)OCO3)O2	4	4
COC(=O)C[C@H]1C=C[C@H](NS(=O)(=O)c2ccc(OC)cc2)[C@@H](CO)O1	5	7
CO[C@@H]1CN(C)C(=O)c2cc(NC(=O)c3cnccn3)ccc2OC[C@@H](C)NC[C@@H]1C	17	12
Cc1noc(C)c1S(=O)(=O)N(C)C[C@@H]1OCCCC[C@@H](C)Oc2ccc(NS(C)(=O)=O)cc2C(=O)N([C@@H](C)CO)C[C@H]1C	16	1

(continued)
SMILES	Vaccinia inh	Vaccinia inh Venus
Cc1noc(C)c1S(=O)(=O)N(C)C[C@@H]1Oc2ccc(NC(=O)Nc3cccc4ccccc34)cc2CC(=O)N([C@@H](C)CO)C[C@H]1C	9	7
CCCC(=O)Nc1ccc2c(c1)C(=O)N(C)C[C@H](OC)[C@@H](C)CN(C(=O)c1cccnc1)[C@@H](C)CO2	15	22
C[C@@H]1CN([C@H](C)CO)C(=O)c2cc(C#Cc3cccc(F)c3)cnc2O[C@@H]1CN(C)CC1CCOCC1	-8	-2
Cc1noc(C)c1NC(=O)Nc1ccc2c(c1)C(=O)N([C@H](C)CO)C[C@H](C)[C@@H](CN(C)S(=O)(=O)c1cccs1)OCCCC[C@@H](C)O2	12	6
C[C@@H]1CN([C@H](C)CO)C(=O)c2cc(Br)cnc2O[C@@H]1CN(C)Cc1cncnc1	24	19
C#CCNC(=O)C1=C[C@@H](C2CC2)[C@H](CCCO)[C@@H](OCC)O1	15	8
C[C@H]1CN([C@@H](C)CO)C(=O)c2cc(NC(=O)C3CC3)ccc2O[C@@H]1CN(C)S(=O)(=O)c1ccc(Cl)cc1	11	14
C[C@@H]1CN([C@H](C)CO)C(=O)c2cc(C#CCN(C)C)cnc2O[C@H]1CN(C)Cc1ccc2c(c1)OCO2	-5	2
Cc1ccc(S(=O)(=O)N(C)C[C@@H]2Oc3ccc(NC(=O)Nc4ccccc4)cc3CC(=O)N([C@H](C)CO)C[C@H]2C)cc1	7	5
CCC(=O)N1CC2(C1)[C@@H](c1ccccc1)[C@@H](CO)N2CC1CCOCC1	19	9
O=C(C[C@@H]1C[C@H]2c3cc(NC(=O)Nc4ccc(F)cc4)ccc3O[C@H]2[C@H](CO)O1)NCC(F)(F)F	8	1
OC[C@@H]1Nc2ccc(C#Cc3ccccc3)cc2[C@@H]2[C@H]1CCN2Cc1nccs1	-20	-16
COc1ccc(S(=O)(=O)N[C@@H]2C=C[C@H](CC(=O)N3CCN(c4ccccc4)CC3)O[C@H]2CO)cc1	10	16
C/C=C/c1cccc(-c2nc(C(=O)NCCC)cc3c2[C@H](CCO)N([S@@](=O)C(C)(C)C)C3)c1	13	26
C[C@@H]1CN([C@H](C)CO)C(=O)c2cc(-c3cccc(C#N)c3)cnc2O[C@@H]1CN(C)Cc1ccc(F)cc1	-12	-10
N#C[C@@H]1[C@@H](c2ccccc2)[C@H](CO)N1C(=O)Cc1ccccc1	11	4
CCNC[C@H]1[C@H](c2ccc(C3=CCCCC3)cc2)[C@@H](CO)N1C(=O)NC(C)C	-2	36
Cc1ccc(-c2ccc([C@H]3[C@H]4CN(S(=O)(=O)c5cccc(C)c5)CCCCN4[C@H]3CO)cc2)cc1	-3	-6
C[C@H](O)C#Cc1cnc2c(c1)C(=O)N([C@H](C)CO)C[C@@H](C)[C@H](CN(C)C(=O)CN(C)C)O2	19	14
CO[C@@H]1CN(C)C(=O)c2cc(NC(=O)c3cccc(F)c3)ccc2OC[C@H](C)NC[C@H]1C	-9	-4
N#C[C@@H]1[C@@H](c2ccccc2)[C@@H](CO)N1S(=O)(=O)Cc1ccccc1	17	21
O=C(C[C@@H]1C[C@H]2c3cc(NC(=O)C4CCOCC4)ccc3O[C@H]2[C@@H](CO)O1)NCCc1ccccc1	24	22
Cc1ccccc1-c1cnc2c(c1)C(=O)N([C@@H](C)CO)C[C@H](C)[C@H](CN(C)CC1CCCCC1)O2	-17	-14
C[C@H](CO)N1C[C@H](C)[C@@H](CN(C)Cc2ccccn2)Oc2ncc(C#CCN(C)C)cc2C1=O	30	20
CC=Cc1ccc2n(c1=O)C[C@H]1[C@H](CO)[C@@H](C(=O)NCC3CC3)N(CC3CCOCC3)[C@@H]21 (mixture of isomers)	12	3
Cc1ccc(S(=O)(=O)N(C)C[C@@H]2OCCCC[C@@H](C)Oc3ccc(NS(=O)(=O)c4ccc(F)cc4)cc3C(=O)N([C@@H](C)CO)C[C@@H]2C)cc1	-16	-18
Cc1noc(C)c1S(=O)(=O)Nc1cccc2c1O[C@@H](CN(C)C(=O)NC(C)C)[C@@H](C)CN([C@@H](C)CO)C2=O	13	8
C[C@@H]1CN([C@H](C)CO)C(=O)c2cc(C#Cc3ccccc3)cnc2O[C@@H]1CN(C)Cc1ccccn1	-1	2
CN(C)CC(=O)N1CCCCN2[C@@H](CO)[C@H](c3ccc(/C=C/c4ccccc4)cc3)[C@@H]2C1	?	·
C[C@@H]1CCCCO[C@@H](CN(C)C(=O)CCC(F)(F)F)[C@@H](C)CN([C@H](C)CO)C(=O)c2cc(NC(=O)Cc3ccccc3)ccc2O1	22	11

Compound profiles, from the list above. Values in the order: Vaccinia inh, Vaccinia inh Venus
CCCC(=O)Nc1ccc2c(c1)C(=O)N(C)C[C@H](OC)[C@@H](C)CN(C(=O)c1cccnc1)[C@@H](C)CO2 is listed as 15, 22
Cc1ccc(S(=O)(=O)N(C)C[C@@H]2OCCCC[C@@H](C)Oc3ccc(NS(=O)(=O)c4ccc(F)cc4)cc3C(=O)N([C@@H](C)CO)C[C@@H]2C)cc1 is listed as -16, -18

The list is partial; count on the stated rates, not on these rows.
